26S disassembly: blocks ATP-dependent breakdown of the yeast 26S proteasome; AID 751; anti-FLAG beads, GFP-proteasome disassembly, flow cytometry; 0.2% of 24,000 active; inhibition of disassembly, % (no concentration beside the values);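 active means above 40%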;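 further: plate controls were ATP control with full disassembly for no effect and ATP-gamma-S intact proteasomes for full effect; higher percent means more bead fluorescence retained so stronger block of disassembly; stock transfer was 100 nL into about 10 µL; wells with too few beads may also be inconclusive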
VCAM-1 rise: boosters of cytokine-driven VCAM-1 levels – cell-based, plate reader, pooled HUVEC, TNFa stimulus (AID 455); augmentation, % at 5 µM; 0.2% of 10,000 active; HUVEC TNFa-induced VCAM-1 immunofluorescence, plate reader; numbers were filed only for top-ranked candidate wells;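 active means a compound raising TNF-alpha-driven VCAM-1 surface staining, with its hit status upheld on visual or statistical review; inactive means the rest, including hits rejected on review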;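 further: 0% = TNFa with vehicle and 100% = strongest image-checked hit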
The depositor's hits bear a star; i = inactive; · = no result given. This is a subset (hit frequency here may not be typical).

SMILES	26S disassembly	VCAM-1 rise
Cc1nc(C)c(C(=O)C2=C(O)C(=O)N(CCN3CCOCC3)C2c2ccco2)s1 (stereo unspecified)	-4.8	i
CCOC(=O)C1CCN(C(=O)CCn2c(=O)[nH]c3ccsc3c2=O)CC1	5.2	·
Cc1cccc(NC(=O)COc2nsnc2N2CCOCC2)c1	1.5	·
CCOC(=O)C1C(c2ccc(C)o2)NC(=O)NC1(O)C(F)(F)F (stereo unspecified)	-1.1	·
O=C(NCCN1CCc2ccccc2C1)C1CC(=O)N(C2CCCC2)C1 (stereo unspecified)	1.4	·
CCOC(=O)N1CCC(NC(=O)c2cc(C(=O)Nc3ccc(F)cc3F)ccc2CO)CC1	-0.6	·
CCN1C(=O)c2ccc(-c3nc4ccccc4c(=O)o3)cc2C1=O	-1.6	·
CN(CCCNC(=O)c1ccc(N2CCCC2=O)cc1)c1ccccc1	2.6	·
CC(=O)N1CCN=C1SCc1c(F)cccc1Cl	-1.5	i
COCCNC(=O)Cn1cnc2sc(C)c(S(=O)(=O)N3CCC(C)CC3)c2c1=O	-1.0	·
O=c1c2c(nc3nc(COc4ccccc4)[nH]n13)CCC2	-0.7	i
Cc1ccc(S(=O)(=O)N(C)CC(=O)NC2CCCC2)cc1	1.9	i

Three records drawn at random from those above, as already listed:
SMILES	26S disassembly	VCAM-1 rise
Cc1cccc(NC(=O)COc2nsnc2N2CCOCC2)c1	1.5	·
O=c1c2c(nc3nc(COc4ccccc4)[nH]n13)CCC2	-0.7	i
CCOC(=O)N1CCC(NC(=O)c2cc(C(=O)Nc3ccc(F)cc3F)ccc2CO)CC1	-0.6	·

The results go on:
SMILES	26S disassembly	VCAM-1 rise
Cn1nc(-c2ccc(C(=O)N3CCN(c4ccccc4)CC3)cc2)c2ccccc2c1=O	1.7	i
COc1ccc(-c2cc(C(=O)Nc3c(C)nn(Cc4ccccc4)c3C)no2)cc1	1.5	·
COC(=O)C(C)NC(=O)C(C)NC(=O)OCc1ccccc1 (stereo unspecified)	0.5	·
CCC(=O)N1CCc2cc(Br)cc(S(=O)(=O)NCC3CCCO3)c21 (stereo unspecified)	-0.8	·
CC(C)(NC(=O)N1CCCC1)c1cccc(C(C)(C)NC(=O)N2CCCC2)c1	-1.3	i
Cc1nc2sc(C(c3ccco3)N3CC(C)OC(C)C3)c(O)n2n1 (stereo unspecified)	-1.1	·
CCOC(=O)C1=C(C)NC(=O)NC1c1ccc(OCCO)c(OC)c1 (stereo unspecified)	1.0	i
COc1cccc(-c2nnc(NC(=O)c3ccccc3Br)o2)c1	0.8	i
Cn1ccnc1SCC(=O)Nc1ccc2nc(SCC(=O)NC3CC3)sc2c1	-2.3	·
CN(CCCNC(=O)CN1C(=O)CC(C)(C)S(=O)(=O)c2ccccc21)C1CCCCC1	0.4	·
OCc1n[nH]c(CO)n1	-3.8	·
Cc1c(C(=O)OCC2CCCO2)[nH]c2c1C(=O)CC(c1ccc(N(C)C)cc1)C2 (stereo unspecified)	0.4	·
Cn1[nH]c(=O)c2ccccc2c1=O	1.3	·
CC(C)(C)NC(=O)CN(C(=O)C1CSC(=O)C1)c1ccc2c(c1)OCCO2 (stereo unspecified)	-4.5	i
O=C(NC1CCCC1)C1CCCN1S(=O)(=O)c1cccc2cccnc12 (stereo unspecified)	0.4	·
Cc1cccc(-c2noc(CN(C(=O)c3c(-c4ccccc4Cl)noc3C)C(C)C)n2)c1	2.2	·
COC(=O)c1nc(N)sc1-c1ccccc1	-0.2	i
CCOC(=O)C1CCN(C(=O)CCCCn2c(=O)[nH]c3ccccc3c2=O)CC1	-1.4	i
CC(C)CC(=O)N1CCN(S(=O)(=O)c2ccc(F)cc2)CC1	-1.2	i
COc1ccccc1OCC(=O)N1CCN(c2ccccc2OC)CC1	-2.7	i
CCc1ccccc1OCCCCCNCCO	0.2	i
Clc1ccc(Cc2nn3c(-c4ccncc4)nnc3s2)cc1	-0.4	i
CCOC(=O)c1sc(NC(=O)COC(=O)Cn2cnc3ccccc32)c(C(=O)OCC)c1C	-0.6	i
Cc1cccc(N2CCN(C(=O)CCNS(=O)(=O)c3ccc4c(c3)CCC(=O)N4)CC2)c1C	0.0	·

An excerpt from above in order of their number in 26S disassembly, highest first:
SMILES	26S disassembly	VCAM-1 rise
Cc1cccc(-c2noc(CN(C(=O)c3c(-c4ccccc4Cl)noc3C)C(C)C)n2)c1	2.2	·
O=C(NC1CCCC1)C1CCCN1S(=O)(=O)c1cccc2cccnc12 (stereo unspecified)	0.4	·
Cc1cccc(N2CCN(C(=O)CCNS(=O)(=O)c3ccc4c(c3)CCC(=O)N4)CC2)c1C	0.0	·
COC(=O)c1nc(N)sc1-c1ccccc1	-0.2	i
CCOC(=O)c1sc(NC(=O)COC(=O)Cn2cnc3ccccc32)c(C(=O)OCC)c1C	-0.6	i
COc1ccccc1OCC(=O)N1CCN(c2ccccc2OC)CC1	-2.7	i
CC(C)(C)NC(=O)CN(C(=O)C1CSC(=O)C1)c1ccc2c(c1)OCCO2 (stereo unspecified)	-4.5	i

Further entries follow.
SMILES	26S disassembly	VCAM-1 rise
CCOC(=O)N1CCC(NC(=O)C2CCN(S(=O)(=O)c3c(C)noc3C)CC2)CC1	0.1	·
COC(=O)c1cc(=O)nc2scc(C)n12	0.8	·
CCC(C)NC(=O)C(NS(=O)(=O)c1ccc2c(c1)c(=O)n(C)c(=O)n2C)c1ccccc1 (stereo unspecified)	1.5	·
c1ccc2[nH]c(SN3CCOCC3)nc2c1	-0.8	·
CCOC(=O)c1ccc(NC2c3ncccc3C(=O)N2Cc2ccc(F)cc2)cc1 (stereo unspecified)	-0.3	·
COC(=O)c1cc(S(=O)(=O)N2CCC(C)CC2)ccc1F	-0.8	i
CCN(CCCNC(=O)C1CCN(S(=O)(=O)c2cnc[nH]2)CC1)c1ccccc1	0.5	·
COc1ccc(OC)c(NS(=O)(=O)c2ccc3c(c2)CCC(=O)N3)c1	0.9	·
COc1ccc(-n2c(Cc3cccn3C)nnc2SCC(=O)N2CCC(C)CC2)cc1	-0.4	·
CCCN(c1ccc(C(C)C)cc1)S(=O)(=O)c1c(C)noc1C	3.0	·
CCCOc1ccc(C(CC(=O)O)NS(=O)(=O)c2ccc(NC(C)=O)cc2)cc1 (stereo unspecified)	0.0	·
CCCCC(O)(C(NC=O)C(=O)OC)C(F)(F)F (stereo unspecified)	-0.5	i
O=C(NCc1ccc(F)cc1)c1ccc(CS(=O)(=O)Cc2ccc(F)cc2)o1	-0.8	·
CN1CCN(C(=O)c2ccc3c(=O)n(CCc4ccccc4)c(=S)[nH]c3c2)CC1	-0.4	i
c1ccc(-c2nnc3ccc(N4CCC5(CC4)OCCO5)nn23)cc1	0.1	·
CCc1nn(-c2cc(Cl)ccc2OC)c2c1C(=O)CCC2	0.9	·
CCOC(=O)N1CCC(NC(=O)CCC(=O)c2ccccc2)CC1	-0.7	·
O=C(c1ccco1)N1CCN(C(=O)C2CCN(S(=O)(=O)c3cccs3)CC2)CC1	-1.1	·
CCOC(=O)c1ccc2c(c1)NC(=O)C(N1CCN(c3ccc(OC)cc3)CC1)S2 (stereo unspecified)	-0.1	·
CCc1ccc(N2CC34C=CC(O3)C(C(=O)OC(C)C)C4C2=O)cc1 (stereo unspecified)	1.0	·
CCOC(=O)N1CCN(CCC(=O)c2ccc(Cl)cc2)CC1	-2.6	i
O=c1oc2ccccc2n1CCc1ccccc1	-1.4	i
CC1CN=C(N(C(=O)Nc2ccccc2)c2ccc(S(=O)(=O)N3CCOCC3)cc2)S1 (stereo unspecified)	-1.8	i
Cc1cccc(N2CN=c3s/c(=C\c4ccncc4)c(=O)n3C2)c1	-1.2	i
CCN(CC)S(=O)(=O)c1ccc2c(c1)nc(SCC(=O)NC1CC1)n2-c1ccccc1OC	0.7	i
CCOC(=O)c1[nH]nc(C(=O)c2ccc(Br)cc2)c1O	0.2	·
COc1cccc(NC(=O)C2CCCN2C(=O)OCc2ccccc2)c1 (stereo unspecified)	0.3	·
Cc1ccc(S(=O)(=O)N2CCC(C(=O)N3CCC(C(=O)NCc4cccnc4)CC3)CC2)cc1	1.6	·
COc1ccc(C)cc1NC(=O)C1CCCN(S(=O)(=O)c2cnc[nH]2)C1 (stereo unspecified)	-0.8	·
CCc1ccc(-c2nc(CN3CCC(C(=O)NCCN(CC)c4ccccc4)CC3)c(C)o2)cc1	0.0	·
CC(=O)c1ccc(-n2nnnc2SCC(=O)N2CCc3ccccc3C2)cc1	1.6	i
COc1cc(OC)cc(-c2nnc(SCC(=O)Nc3cc(C)on3)o2)c1	10.9	i
CCOC(=O)c1ccc(NC(=O)CCc2nc(-c3cccc(C)c3)no2)cc1	-4.1	i
COc1ccc(-c2cn3c(C)c(C(=O)Nc4cccc(NC(C)=O)c4)sc3n2)cc1	1.4	·
Cc1c(C#N)sc2nc(-c3ccccc3)nc(N3CCCC3)c12	0.0	i
O=C(c1ccc(COc2ccc(F)cc2)o1)n1cccn1	1.3	·
CCCS(=O)(=O)NCc1cn2cccc(C)c2n1	3.7	·
Cc1ccc(-c2cc(C(F)F)nc(N3CCC(C)CC3)n2)cc1	3.2	i
COc1ccc(N(C(=O)c2cccc(OC)c2OC)C2C=CS(=O)(=O)C2)cc1 (stereo unspecified)	-0.5	·
Cc1cc(C)n(CC2CC(=O)N(c3ccc(Cl)c(Cl)c3)C2=O)n1 (stereo unspecified)	-1.1	i
CCOC(=O)c1cccc(NC(=O)CN(C)S(=O)(=O)c2cnc[nH]2)c1	-3.0	·
Cc1ccc(-c2ccc(=O)n(CC(=O)NCCN3CCCCC3C)n2)cc1 (stereo unspecified)	-0.8	·
Cc1onc(-c2ccccc2Cl)c1C(=O)Oc1cc(N)n(S(=O)(=O)c2ccc(F)cc2)n1	-0.7	·
Cc1ccc(NC2=NC3(CCCCC3)N=C(N)N2)c(C)c1	-3.4	i
O=C(C1CCC1)N1CCc2cc(S(=O)(=O)NC3CCCC3)ccc21	0.9	·
CC1CCCC(C)N1C(=O)c1cc(-c2cccs2)on1 (stereo unspecified)	-0.5	·
CCCCCn1c(CNC(C)=O)nc2ccccc21	-0.9	·
CCN(CCCn1c(SCC#N)nc2ccccc2c1=O)c1ccccc1	-2.6	·
Cc1cnc(C(=O)OCC(=O)Nc2ccc(Cl)cc2Cl)cn1	2.4	i
COc1ccc(C(=O)N(CN2CCCC2=O)c2cc(C)on2)cc1OC	1.5	·
COC(=O)c1ccc(CSc2nc3c(cnn3-c3ccc(F)cc3)c(=O)[nH]2)o1	1.1	i
Cc1cccc(-c2nnn(CC/C(N)=N/O)n2)c1	-0.4	i
Cc1cccc(NC(=O)Cn2cnc3ccc(S(=O)(=O)N4CCC(C)CC4)cc3c2=O)n1	3.3	·
CCN1C(=O)c2ccc(C(=O)O)cc2C1=O	1.2	·
COc1ccc(CN2CC(C(=O)NCCCN3CCN(Cc4ccccc4)CC3)CC2=O)cc1 (stereo unspecified)	-0.3	·
S=C(c1ccc(-c2cc(Cl)ccc2Cl)o1)N1CCOCC1	-2.0	i
O=C(CN1CCC(O)(c2ccc3c(c2)OCO3)CC1)OC1CCCCC1	3.2	i
O=C(NC1CCCCC1)C1CCN(S(=O)(=O)N2CCOCC2)CC1	-0.6	·
O=c1c2ccccc2nc(SCc2cccc(F)c2)n1Cc1ccco1	-2.1	i
Cc1cccc2cc(CN(CCN3CCCC3)C(=O)NC3CCCCC3)c(=O)[nH]c12	0.5	i
(next part)
SMILES	26S disassembly	VCAM-1 rise
Cc1ncc(CSc2nc3ccccc3[nH]2)c(N)n1	-0.3	i
C=CCn1c(COc2ccccc2F)nnc1SCC(=O)N1CC(=O)Nc2ccccc21	-0.8	i
CCCc1cc(C(=O)NCCc2ccc(OC)c(OC)c2)no1	-1.3	·
Cc1cccc(C2N(c3nccs3)C(=O)C3CCCN32)c1 (stereo unspecified)	13.7	·
O=C(NC1CCCC1)C1CCC(=O)N1C1CCCC1 (stereo unspecified)	-0.9	·
COc1cc(OC)c(C2N(c3ccc(Cl)cc3)C(=O)C3CCCN32)cc1OC (stereo unspecified)	13.6	·
O=C(NCCN1CCCCCC1)C1CC(=O)N(CCc2ccccc2)C1 (stereo unspecified)	-0.8	·
COCCNC(=O)CSc1nc2cc(OC)c(OC)cc2c(=O)n1CCC1=CCCCC1	-3.4	·
O=C(CN1CCN(c2ccc(F)cc2)CC1)Nc1ccc(F)c(F)c1	-0.8	·
CCOC(=O)N1CCC(N2Cc3cccc(C(=O)NCc4ccc(OC)cc4)c3C2=O)CC1	1.8	·
CCN1C(=O)c2cccc3c(NC(=O)c4ccc5c(c4)OCCO5)ccc1c23	0.1	i
Cc1ccc(NC(=O)C2CCCN(S(=O)(=O)c3c(C)noc3C)C2)cc1F (stereo unspecified)	1.1	·
COC(=O)c1cccc(C(=O)Oc2cccc(Br)c2)n1	-1.4	·
COc1ccc(-c2noc(-c3cc(Cl)ccc3Cl)n2)cc1OC	-1.0	i
COc1ccccc1Cn1cnc2cccnc21	0.2	·
CC1CCCC(NC(=O)CN2CCN(Cc3ccc(Cl)cc3)C2=O)C1C (stereo unspecified)	-1.0	i
c1ccc(-c2nnc(CSc3nncs3)o2)cc1	0.5	i
Cc1nccn1CCCN1C(=O)OC2(CCCCC2)C1(C)O (stereo unspecified)	0.3	i
Cc1cccc(N(CC(=O)Nc2ccc(CC#N)cc2)S(C)(=O)=O)c1	0.9	i
Cc1nc2ncnn2c(Nc2ccc3c(c2)OCCO3)c1C	-7.8	i
Cc1nnc(Sc2cc(C(=O)NCc3ccco3)c3ccccc3n2)s1	1.8	·
COc1ccc2cc3cc(C(=O)NCC4COc5ccccc5O4)oc3nc2c1 (stereo unspecified)	-0.4	·
O=C(O)C1CCCN1C(=O)c1cccs1 (stereo unspecified)	-1.1	i
